# Bioassay records: PubChem, National Center for Advancing Translational Sciences (NCATS)
# gsp antagonist: antagonists of gsp mutant (McCune-Albright syndrome); gsp-mutant cells, cAMP HTRF, 30 min; control for the full effect not named in the record; Potency, µM (doses to about 76.9 µM), inactives show at the top dose activity change, negative = inhibition, most hits filed as inhibitors; 340,000 compounds, 0.4% hits; AID 624288; active = falling curve of any shape with a large fitted effect; inconclusive = falling curve, mostly with a smaller effect; inactive = flat or rising curve; cell line not stated here;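 note: intracellular cAMP measured with PDE inhibitor Ro 20-1724 present during compound exposure; potency is the fitted concentration of half-maximal effect; % is set by controls: 0 for no effect and ±100 for the full control effect; nearly all actives have a fitted effect of over 65% in size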
#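 G418-selected cells were plated in DMEM/10% FBS for 16-24 h at 37C, then treated with compounds plus the PDE inhibitor […] (300 uM solution added) for 30 min at 37C. Intracellular cAMP was measured by HTRF after 30 min lysis at room temperature.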
# gsp agonist: gsp mutant agonism | gsp mutant cells, cAMP HTRF, 30 min; control for the full effect not named in the record | Potency, µM (series often up to 76.9 µM), inactives show at the highest dose activation (cAMP increase), hits mostly activators | 340,000 compounds, 0.13% hits | AID 624287; active = well fitted activation curve with a large enough effect; inconclusive = small, poorly fitted or top-dose-only effect, or another doubt; inactive = no such curve, though single readings can be large or run the other way; cell line not stated here;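 note: phosphodiesterase inhibitor Ro 20-1724 added with compounds to block cAMP breakdown; potency is the fitted concentration of half-maximal effect; nearly all actives have a fitted effect of over 60% in size; about a fifth of the inactives were tested at one dose only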
#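 Cells in DMEM/10% FBS with G418 were pretreated with compounds in DMSO plus […] (300 uM stock) for 30 min at 37C. cAMP was measured by HTRF (cAMP-d2 plus anti-cAMP antibody-K) after 30 min at room temperature.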
# D2 PAM: human D2 receptor positive allosteric modulation. P14416. DiscoveRx D2 beta-arrestin cells, luminescence, 90 min; 100% = 57 uM dopamine signal. potentiation, % (concentration not given with the values). 360,000 compounds, 0.23% hits. AID 624464; active = potentiation of 50% or more; inconclusive = 30% to 50%; inactive = 30% or less;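 note: tested on top of an EC20 dose of dopamine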
#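 D2 cells co-treated with compound plus 50 nM dopamine (EC20) for 90 min at 37 deg C to detect potentiation. Beta-arrestin recruitment was read as enzyme-fragment luminescence after 1 h at ambient temperature. Full response was set by 57 uM dopamine.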
# CtBP-E1A inh: CtBP/E1A binding inhibition. AlphaScreen GST-E1A/His-CtBP binding, 1536-well; hits give low values; control for the full effect not named in the record. activity change, % (no concentration beside the values). 340,000 compounds, 0.49% hits. AID 651724; in the data active means activity change below about -65%; inconclusive means about -30% to -65%; inactive means above about -30%; note: % is set by controls: 0 for no effect and ±100 for the full control effect
#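 AlphaScreen with 125 nM GST-E1A and 125 nM His-CtBP (5X stocks) in Tris pH 8.0, 300 mM NaCl, BSA, Tween 20, TCEP. Compounds preincubated 2 h at 37 deg C, then glutathione donor/nickel acceptor beads added for 1 h at 37 deg C in dark.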
# Six1-Eya2 blk: blocks human Six1 binding to Eya2 | Q15475+O00167 | AlphaScreen GST-Six1/His-Eya2 binding, biochemical; hits give low values; control for the full effect not named in the record | activity change, % (test concentration not listed) | 360,000 compounds, 0.56% hits; in the data active = activity change below about -65%; inconclusive = about -30% to -65%; inactive = above about -30%; note: % is set by controls: 0 for no effect and ±100 for the full control effect
# Target sequence (O00167 whole entry, looked up): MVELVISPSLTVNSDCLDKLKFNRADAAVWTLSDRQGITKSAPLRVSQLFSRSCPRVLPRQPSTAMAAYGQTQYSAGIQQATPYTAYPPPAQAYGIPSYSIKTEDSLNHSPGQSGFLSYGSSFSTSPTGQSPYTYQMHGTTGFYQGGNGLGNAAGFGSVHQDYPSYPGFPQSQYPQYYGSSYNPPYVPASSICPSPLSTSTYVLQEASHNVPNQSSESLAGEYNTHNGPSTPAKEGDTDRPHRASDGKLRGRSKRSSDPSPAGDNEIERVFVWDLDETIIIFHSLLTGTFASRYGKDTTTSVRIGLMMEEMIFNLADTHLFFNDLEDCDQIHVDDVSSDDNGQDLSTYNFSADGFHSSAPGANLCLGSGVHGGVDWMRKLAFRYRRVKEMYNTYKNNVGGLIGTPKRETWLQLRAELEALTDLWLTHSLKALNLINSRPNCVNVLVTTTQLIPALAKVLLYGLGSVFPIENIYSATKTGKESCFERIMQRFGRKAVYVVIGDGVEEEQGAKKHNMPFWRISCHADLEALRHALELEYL
# Target sequence (Q15475 whole entry, looked up): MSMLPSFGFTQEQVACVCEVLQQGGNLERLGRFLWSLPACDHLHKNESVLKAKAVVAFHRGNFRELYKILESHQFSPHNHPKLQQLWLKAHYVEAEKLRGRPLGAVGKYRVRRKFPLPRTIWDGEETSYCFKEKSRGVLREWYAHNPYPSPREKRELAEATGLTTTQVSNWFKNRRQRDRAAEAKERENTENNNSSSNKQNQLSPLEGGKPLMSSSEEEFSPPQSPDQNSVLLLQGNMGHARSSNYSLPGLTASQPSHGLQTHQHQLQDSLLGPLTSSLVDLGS
#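 Homogeneous AlphaScreen proximity assay pairing GST-Six1 with His-tagged Eya2 (added as 5X mix: 250 nM and 500 nM) in 50 mM Tris pH 8.0, 300 mM NaCl, 1 mM TCEP. Glutathione donor and nickel acceptor beads; 1 h, 37 °C, dark.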
# D2 agonist: agonists of human D2 dopamine receptor (beta-arrestin). 360,000 compounds, 0.084% hits. AID 624465. DiscoveRx PathHunter D2 beta-arrestin, luminescence, 90 min; 100% = 57 uM dopamine signal. activation, % (no concentration beside the values). P14416; in the data active = activation above about 40%; inconclusive = about 15% to 40%; inactive = below about 15%; note: compound concentration not given in the record; the text of the record calls up to 30% inactive
#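 Agonist mode: compounds alone added to overnight-plated D2 PathHunter cells for 90 min at 37 C, with 57 uM final dopamine (EC100) defining full response. Beta-arrestin recruitment detected by chemiluminescent reagent, read after 1 h at ambient temperature.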
# An asterisk follows results filed as active; ? = inconclusive; / = not tested or not shown; [ ] = another dose, or the depositor's remark.
SMILES	gsp antagonist	gsp agonist	D2 PAM	CtBP-E1A inh	Six1-Eya2 blk	D2 agonist
N/C(Cc1cccc2ccccc12)=N\OC(=O)c1ccc2c(c1)OCO2	0.6%	19.4%	16.7	-8.0	-12.3	9.8
CCCN(CCC)CC(O)Cn1cc(/C=C/C(=O)c2ccccc2)c2ccccc21 (stereo not drawn)	-3.0%	-23.7%	15.3	-1.3	0.3	?
Cc1ccc(NC(=O)CSc2nnc(-c3ccncc3)s2)cc1	-13.0%	-24.2%[15.4 µM]	-3.7	1.8	9.2	0.3
O=C(Nc1nc(-c2ccccc2)cs1)c1ccc(Br)o1	?	-4.1%	-13.4	-3.2	-3.4	-1.6
COc1cccc(OCc2cc(C(=O)NCc3ccc4c(c3)OCO4)no2)c1	4.4%	-9.9%	-9.1	/	1.8	-0.6
CCc1nc2ccc(C(=O)N3CCC(O)(Cc4ccccc4)CC3)cn2c1N(C)C(=O)Cc1ccccc1	/	/	-7.6	5.0	8.0	-1.7
CCN(CC)S(=O)(=O)c1ccc(N(C)Cc2ccc(C(F)(F)F)cc2)nc1	-16.1%	-29.3%	-9.4	28.6	16.8	0.7
COc1cc(/C=C2\SC(=S)N(NC(C)=O)C2=O)ccc1OC(=O)c1ccco1	4.6%	-4.6%	-24.0	-0.5	-17.1	-8.4
Cc1ccc(S(=O)(=O)N2CCN(Cc3ccccc3)CC2)s1	5.7%	18.9%	-5.2	-12.9	-18.2	0.1
CC1CC(C)CN(CC(=O)N2c3ccccc3CCc3ccccc32)C1 (stereo not drawn)	8.2%	-21.5%	-12.4	2.0	-0.4	-4.6
CCOc1ccc(NC(=O)[C@@H](NC(=O)OCc2ccccc2)[C@@H](C)CC)cc1	9.0%	-8.3%[15.4 µM]	4.7	-7.7	5.8	-1.8
C=CCn1c(SCC(=O)c2c(N)n(CCC)c(=O)n(C)c2=O)nc2sc(CC)cc2c1=O	1.0%[15.4 µM]	14.4%	-2.7	-0.9	-2.0	-3.5
COc1ccc2c(c1)c(=O)oc1cc(O)ccc12	1.9%	?	-1.1	1.5	-11.2	0.7
CCC(C(=O)NC1CCCC1)N(C(=O)Cn1nnc(-c2ccc(OC)c(OC)c2)n1)c1cccc(O)c1 (stereo not drawn)	-20.6%	-41.3%[inhibitor]	-6.2	-0.7	9.8	-0.7
CC(=O)N=c1c(C#N)cc2c(=O)n3cccc(C)c3nc2n1CCCOC(C)C	-3.5%	16.8%[15.4 µM]	-3.8	-16.4	-1.4	-7.1
O=C(NN=Cc1ccc(N2CCOCC2)s1)c1ccc([N+](=O)[O-])cc1	?	3.9%	-2.3	-8.3	-5.5	-0.7
O=c1ccc2cc(S(=O)(=O)N3CCN(c4cc(Cl)ccc4Cl)CC3)ccc2o1	-7.4%	-16.9%	-0.1	1.4	-4.8	1.6
O=C(COC(=O)C1(c2ccc(F)cc2)CCCC1)N1CCOCC1	0.5%	16.3%	-1.8	2.0	6.2	1.7
CCOC(=O)N1CCN(C(=O)CCCCCn2c(=S)[nH]c3cc4c(cc3c2=O)OCO4)CC1	4.9%	-4.7%[15.4 µM]	-6.2	11.5	-13.9	-2.6
c1ccc2[nH]c(CSc3nccs3)nc2c1	-7.1%	18.1%	6.9	2.9	-0.8	-0.4
CC(Sc1nnc(NC2CCCCC2)s1)C(=O)N1CCOCC1 (stereo not drawn)	-11.2%	-4.2%	-31.8	3.5	3.0	-6.9
C=CCN(CC=C)S(=O)(=O)c1ccc(NC(=S)NC(=O)c2ccco2)cc1	-30.0%	3.3%	-9.3	-5.3	6.0	2.6
O=C(NCCc1ccccn1)c1ccc(OC(F)F)cc1	10.1%	16.9%	-7.0	-6.7	1.4	-2.8
O=C1OCCC1Sc1nnc(-c2ccc(F)cc2)n1Cc1ccccc1 (stereo not drawn)	7.8%	-20.7%	-2.7	10.6	-1.4	-1.0
Cc1ccc(Cn2c(=O)c3ccccc3n3c(CCC(=O)O)nnc23)cc1	-5.2%	?	-2.3	-15.0	9.5	0.3
COC(=O)c1cc(S(=O)(=O)NCCCN2CCCC2=O)cn1C	10.1%	?	-2.5	2.0	4.0	0.6
COc1ccc2cc(/C=N/NC(=O)c3ccc(CN(c4ccc(C)c(C)c4)S(C)(=O)=O)cc3)c(Cl)nc2c1	-5.8%	?	2.0	-2.3	-7.8	-0.6
O=C(COC(=O)c1ccc(OC(F)F)cc1)NCc1cccs1	5.4%	-44.2%[inhibitor]	1.2	/	4.6	2.4
Cc1ccc(OCC(=O)N2CCN(c3nnc(-c4ccccc4)c4ccccc34)CC2)cc1	?	6.4%	-4.5	?	?	-0.8
Cc1cccc(-n2cc(-c3ccccc3)c3c(=O)[nH]cnc32)c1	-11.9%	19.1%[15.4 µM]	-7.3	-20.8	0.9	-6.4
O=C(CCC(=O)N1CCN(c2ccccn2)CC1)Nc1nnc(C2CCCCC2)s1	13.4%	?	-5.2	13.7	5.1	0.7
COc1ccc(S(=O)(=O)N2CCC(C(=O)N[C@H](C(=O)NCc3ccccc3)C(C)C)CC2)cc1	/	-29.2%	-9.4	0.0	6.8	-2.6
CSc1cccc(N2CC(C(=O)N(Cc3nnc(-c4ccccc4Cl)o3)C3CC3)CC2=O)c1 (stereo not drawn)	-6.1%	21.9%	-12.8	-12.9	-3.2	2.5
COCCNC(=O)CN(C(=O)Cn1nnc2ccccc21)c1ccc(F)c(Cl)c1	-1.4%	-10.8%	4.0	-4.5	-0.9	-3.0
CCOC(=O)C1=C(C)N=c2s/c(=C/c3ccc(OCC(=O)O)c(OC)c3)c(=O)n2C1c1ccc(Cl)cc1 (stereo not drawn)	35.5µM*	19.3%[15.4 µM]	-8.4	-0.8	-16.0	0.9
O=C1/C(=C\c2cccs2)N=C(c2cccs2)N1Nc1ccccc1	0.3%	-23.2%	-14.6	9.6	-20.4	-2.2
Cc1ccc(S(=O)(=O)Oc2ccccc2/C=N/NC(N)=S)cc1	0.4%	2.1%	-16.9	64.9	19.3	-1.9
O=C(CSc1nc2ccccc2n1Cc1ccc(Cl)cc1)N/N=C/c1ccc(C(=O)O)cc1	-30.7%	-1.9%[15.4 µM]	-9.5	0.0	-1.2	-1.8
COCCS(=O)(=O)N(Cc1ccccc1)[C@H](C(=O)OC)C(C)C	3.3%	/	-6.5	-2.7	5.9	-2.3
O=C1CCC([N+](=O)[O-])C(C2CC=CCC2)N1 (stereo not drawn)	-0.8%	14.6%[15.4 µM]	2.2	0.0	2.5	9.9

# Compound profiles, from the list above. Values in the order: gsp antagonist, gsp agonist, D2 PAM, CtBP-E1A inh, Six1-Eya2 blk, D2 agonist
# `O=C1CCC([N+](=O)[O-])C(C2CC=CCC2)N1` (stereo not drawn) is listed as -0.8%, 14.6%[15.4 µM], 2.2, 0.0, 2.5, 9.9
# `C=CCn1c(SCC(=O)c2c(N)n(CCC)c(=O)n(C)c2=O)nc2sc(CC)cc2c1=O` is listed as 1.0%[15.4 µM], 14.4%, -2.7, -0.9, -2.0, -3.5

# (next part)
SMILES	gsp antagonist	gsp agonist	D2 PAM	CtBP-E1A inh	Six1-Eya2 blk	D2 agonist
CC(C)c1ccc(N(C(=O)C(F)(F)F)C(C(=O)NC2CCCCC2)c2ccncc2)cc1 (stereo not drawn)	6.3%	-73.1%[inhibitor]	-5.1	8.6	4.6	1.8
CCOc1ccc(C(=O)N2CCN=C2SC)cc1OCC	6.3%	0.1%	1.1	0.5	4.7	0.7
CC1(C)Cc2c(sc3nc4n(-c5ccccc5)c(=O)c(CCC(=O)O)nn4c(=O)c23)CO1	-5.8%	5.0%[15.4 µM]	-0.1	?	?	14.3
CN(C)/C=C/C(=O)c1ccc2noc(-c3cccc(F)c3)c2c1	?	14.7%	-3.9	/	0.1	46.2*
N#Cc1cc(C#N)c(N2CCN(c3cccc(Cl)n3)CC2)nc1N	-0.4%	-1.5%	0.8	-11.1	-4.5	0.3
CC(Oc1ccc(F)cc1)C(=O)Nc1cc(Cl)ccc1-n1cncn1 (stereo not drawn)	-5.5%	-21.7%	-22.4	3.8	8.3	-2.6
CC(C)c1ccc(/C=N/NC(=O)c2nnn(-c3nonc3N)c2CN(C)C2CCCCC2)cc1	-5.2%	4.6%	-9.1	3.8	2.4	-3.1
COc1cccc(C(=O)NNC(=O)Cc2csc(N)n2)c1	17.2%	10.0%[15.4 µM]	-1.0	-14.0	-0.3	-4.1
N#CCN(C(=O)COC(=O)CCCNC(=O)c1ccc(Cl)cc1)c1ccccc1	2.1%	-37.7%[inhibitor]	-10.1	-1.3	-0.4	-0.5
CCOc1ccc(C2N(c3ccc(OC)cc3)C(=O)C3CCCN32)cc1OC (stereo not drawn)	0.8%	-24.6%	-5.2	1.4	0.0	-2.4
Cc1cc(Nc2ccccc2)n2nc(C)c(-c3ccccc3)c2n1	-11.1%	9.8%	3.5	/	9.1	-0.4
COc1ccc(/C=N/N=C2/NC(=O)C(CC(=O)O)S2)cc1OS(=O)(=O)c1ccccc1 (stereo not drawn)	-4.1%	?	-3.5	-5.7	8.4	-3.4
Cc1ccc(OCC(=O)NNC(=S)NC(=O)C2CCCCC2)c(C)c1	2.5%	?	-9.8	-2.8	-11.2	-13.9
O=C(Nc1cccc(S(=O)(=O)NC2=NCCCCC2)c1)C1COc2ccccc2O1 (stereo not drawn)	1.8%	10.1%	-1.4	3.2	0.1	1.0
Cc1noc(C)c1C(=O)N1CCN(Cc2ccc3c(c2)OCO3)CC1	2.9%	5.0%	-13.6	3.9	1.8	-0.2
CC(C)C1Cc2c(sc3[nH]c(=S)n(Cc4ccccc4)c(=O)c23)CO1 (stereo not drawn)	-18.0%	-69.6%[inhibitor]	-32.9	2.3	-7.9	-5.1
COc1cc(/C=C/C(=O)OCC(=O)Nc2cc(C)c(C)cc2[N+](=O)[O-])ccc1O	-1.1%	6.8%	-8.1	-10.7	1.4	-0.4
C#CCN(C[C@H]1[C@H](OC(=O)Nc2c(C)noc2C)[C@H](OC(=O)Nc2c(C)noc2C)C[C@@H](C(=O)OC)[C@H]1C(=O)OC)S(=O)(=O)c1ccc(C)cc1	/	22.7%	-13.9	0.0	10.6	2.3
O=C(c1cccnc1Cl)N(Cc1ccccc1)Cc1ccccc1	3.5%	-4.6%[15.4 µM]	3.5	13.6	0.4	-1.8
CC(C)(Nc1ccccc1)C(=O)c1ccccc1	7.0%	-1.0%[15.4 µM]	-18.6	28.4	1.0	-3.6
N=C(N)SCc1cn2ccccc2n1	11.5%	2.9%	-8.6	-7.6	-2.0	-5.0
Cc1cc(C)cc(OCC(=O)N2CCCCCC2)c1	7.8%	25.7%	-9.3	7.0	5.5	-2.2
